TRPML1 ag: agonists of human TRPML1 channel. Q9GZU1. TRPML1-expressing cells, Ca2+ dye fluorescence, FDSS; host cell line not named in the record; reference of the full effect not given here. activation, % (concentration not given with the values). 410,000 compounds, 0.12% hits. AID 624414; in the data active = activation above about 50%; inconclusive = about 30% to 50%; inactive = below about 30%; also: 0% is about no effect; the text of the record puts the active cut at 80%
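Tet-induced TRPML1-DL cells, 1,500 per well, cultured overnight, were loaded with a no-wash Ca2+ dye for 45–90 min. Calcium fluorescence was recorded on the FDSS for 110 s after compound addition, before the EC80 agonist (4 uM 54-4) was added.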
TRPML1 inh: inhibitors of human TRPML1 channel; TRPML1-inducible cells, Ca2+ dye fluorescence, FDSS; stronger effect = lower value; inhibition of EC80 agonist-evoked calcium signal; activity change, negative = inhibition, % (no concentration beside the values); 390,000 compounds, 0.02% hits; AID 624415; in the data active means activity change below about -50%; inconclusive means about -30% to -50%; inactive means above about -30%;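 also: stimulus is agonist 54-4 at its EC80 concentration; % is scaled to controls: 0 for no effect and ±100 for the full control effect; compound concentration not given in the record; the text of the record puts the active cut at -80%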
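TRPML1-DL cells, Tet-induced overnight (~16 h, 37 °C) at 1,500 cells/well, were loaded with Ca8 no-wash dye plus quencher for 45-90 min at room temperature. Compounds were pinned during FDSS kinetic reading; agonist 54-4 at EC80 (4 uM final) then added.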
Menin MLL FP FL: menin-MLL binding inhibition, fluorescein peptide; Fluorescence polarization, fluorescein-MLL peptide displacement from menin; FP activity change, % at 61.4 µM; 290,000 tested, under 10 active; inconclusive = falling polarisation curve, or a change in total fluorescence; inactive = total fluorescence flat and polarisation flat or rising; no compound was filed as active; the % refers to the polarisation; negative = inhibition;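 also: % of control where 0% means no effect; inhibitors lower the polarisation; unlabelled MLL peptide was the positive control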
TRPV1 potentiator: potentiators of human vanilloid receptor 1 (TRPV1); 320,000 compounds, 0.02% hits; Q8NER1; AID 540277; potentiation, % at 8.33 µM; TRPV1-expressing cells, Fluo-8 calcium influx, capsaicin EC20 potentiation; host cell line not named in the record; control for the full effect not named in the record; active means potentiation above 80%; inconclusive means 30% to 80%; inactive means below 30%; also: 0% is about no effect
Target sequence (Q8NER1 whole entry, looked up): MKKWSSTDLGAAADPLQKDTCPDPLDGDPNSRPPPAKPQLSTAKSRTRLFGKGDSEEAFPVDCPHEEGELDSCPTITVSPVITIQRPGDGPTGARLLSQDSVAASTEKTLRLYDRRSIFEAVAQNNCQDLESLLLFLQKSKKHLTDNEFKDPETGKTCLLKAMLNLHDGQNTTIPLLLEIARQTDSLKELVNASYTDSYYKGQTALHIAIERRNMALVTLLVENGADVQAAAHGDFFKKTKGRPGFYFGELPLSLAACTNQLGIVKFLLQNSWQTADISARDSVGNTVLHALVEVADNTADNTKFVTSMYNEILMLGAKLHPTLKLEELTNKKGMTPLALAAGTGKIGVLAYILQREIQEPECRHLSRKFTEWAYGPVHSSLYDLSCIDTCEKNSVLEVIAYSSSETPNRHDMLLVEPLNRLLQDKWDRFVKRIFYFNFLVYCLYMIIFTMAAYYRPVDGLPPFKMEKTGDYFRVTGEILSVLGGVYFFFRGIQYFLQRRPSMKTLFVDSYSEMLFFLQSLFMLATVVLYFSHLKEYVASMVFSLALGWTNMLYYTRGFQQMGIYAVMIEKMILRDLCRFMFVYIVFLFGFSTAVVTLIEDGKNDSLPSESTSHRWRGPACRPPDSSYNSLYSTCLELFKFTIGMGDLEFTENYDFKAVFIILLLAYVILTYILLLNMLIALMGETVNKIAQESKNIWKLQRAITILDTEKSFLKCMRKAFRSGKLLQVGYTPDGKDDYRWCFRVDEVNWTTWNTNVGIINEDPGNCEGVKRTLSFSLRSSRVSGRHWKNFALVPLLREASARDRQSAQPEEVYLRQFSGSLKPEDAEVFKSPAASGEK
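Cells expressing TRPV1 were dye-loaded with Fluo-8 and read kinetically: 10 s baseline, 3 min after compound (agonist portion), then 2 min after EC20 capsaicin (allosteric enhancer portion). Calcium-bound dye fluorescence at 480/520 nm.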
ClpP mod: qHTS Assay for Activators of ClpP; purified B. subtilis ClpP, FRET peptide cleavage, 20 min; 340,000 compounds, 1.9% hits; Potency, µM (doses to about 57.5 µM), inactives show top-dose activity change, negative = active; ATP-dependent Clp protease proteolytic subunit (Bacillus subtilis (strain 168)), P80244; active = well fitted falling curve with a large enough effect; inconclusive = small, poorly fitted or top-dose-only effect; inactive = no such curve, though single readings can be large or run the other way; also: potency is read from the fitted curve at half-maximal effect; the source files actives as falling curves though it sought activators and does not explain the sign; nearly all actives have a fitted effect of over 65% in size; many hits overshoot -100%
Target sequence (P80244 whole entry, looked up): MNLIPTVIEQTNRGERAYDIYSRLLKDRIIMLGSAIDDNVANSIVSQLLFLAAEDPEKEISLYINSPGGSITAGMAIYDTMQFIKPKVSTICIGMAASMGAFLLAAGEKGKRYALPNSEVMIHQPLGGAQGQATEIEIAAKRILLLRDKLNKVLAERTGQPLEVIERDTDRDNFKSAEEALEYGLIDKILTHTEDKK
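Purified B. subtilis ClpP, 10 microg/mL final in Tris/HCl pH8 with KCl, BSA, glycerol and Tween-20, cleaved an Abz/nitrotyrosine-quenched decapeptide. Fluorescence (ex 320, em 430) was read at 0 and 20 min at room temperature. Delta was normalized to 5.8 microM ADEP and DMSO/no-enzyme controls.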
PINK1 modulator: changes PINK1 expression | PINK1 immunofluorescence, high-content cytometry, 24 h | Potency, µM (top dose mostly 76.6 µM), for inactives: top-dose activation (PINK1 increase), actives largely listed as activators | 410,000 compounds, 0.2% hits | AID 624263; active = well fitted activation curve with a large enough effect; inconclusive = small, poorly fitted or top-dose-only effect; inactive = flat fitted curve, though single readings scatter; cell line not stated here;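 also: potency is read from the fitted curve at half-maximal effect; % of control where 0% means no effect; nearly all actives have a fitted effect of over 65% in size; a mitochondrial uncoupler was the plate control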
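Cells are seeded, rested 12 hours, then given compound at five concentrations or DMSO for 24 hours. After fixation, blocking and antibody staining, PINK1 amount and mitochondrial localization are scored; CCCP serves as control.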
Sfp inh: blocks B. subtilis Sfp PPTase activity; Potency, µM, inactives show max response, negative = inhibition, actives largely listed as inhibitors; 310,000 compounds, 3.5% hits; AID 1490; Biochemical Sfp PPTase activity, qHTS; Q9F4F7; active = well fitted inhibition curve with a large enough effect; inconclusive = small, poorly fitted or top-dose-only effect, or another doubt; inactive = no such curve, though single readings can be large or run the other way;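 also: the enzyme is Sfp with the accession as filed and its product quenches rhodamine fluorescence; potency is read from the fitted curve at half-maximal effect; 0% = enzyme reaction without inhibitor and -100% = no enzyme wells; top concentration of the series not given in the record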
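Sfp 15 nM + cpd, 15 min RT; start w/ rhodamine-CoA 5 uM, BHQ-2-YbbR 12.5 uM (final); 50 mM Hepes pH 7.6, 10 mM MgCl2, 0.01% NP-40, 0.01% BSA; read 525/598 nm at 0 and 30 min.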
* hit, by the source's call; ? = inconclusive; nt = not tested or not shown; [ ] = dose if it differs, or a comment.

1: CCOC(=O)Cn1nnc(-c2ccccc2)n1
2: COC(=O)CSc1nc(N)c(C#N)c(CC(C)C)c1C#N
3: CCNC(=O)C(Sc1ccccc1)c1ccccc1 (stereo not drawn)
4: CCc1ccc(N2CC(C(=O)Nc3ccc(S(=O)(=O)NCC4CCCO4)cc3)CC2=O)cc1 (stereo not drawn)
5: COCCCNC(=O)c1ccc(C)c(-n2c(C)nc3cccnc32)c1
6: COc1ccc(NC(=O)C/C(C)=N/NC(=O)C(=O)NC(C)C)c(OC)c1
7: CCCn1c(N)c(C(=O)CSc2nnc(-c3ccoc3C)n2C)c(=O)n(C)c1=O
8: CN(CC(=O)NCC(=O)Nc1ccc(F)cc1)C1CCS(=O)(=O)C1 (stereo not drawn)
screen / no. | 1 | 2 | 3 | 4 | 5 | 6 | 7 | 8
TRPML1 ag | -0.9 | -0.2 | 0.3 | 1.1 | 1.4 | -0.3 | 0.4 | -0.2
TRPML1 inh | 2 | -9 | -3 | -3 | 5 | -10 | 5 | 2
Menin MLL FP FL | 0.9 | 2.8 | -4.5 | -0.6 | nt | 0.7 | nt | nt
TRPV1 potentiator | 0 | 1 | 4 | 2 | nt | 0 | -2 | 5
ClpP mod | -1.3% | ? | 1.1% | -0.5% | ? | nt | 0.3% | -0.9%
PINK1 modulator | 1.4% | -0.4% | -4.6% | 6.5% | -0.5% | -0.8% | -0.3% | 0.6%
Sfp inh | 17% | 10% | -1% | 3% | nt | -10% | nt | nt

9: Cc1ccc(S(=O)(=O)N(C)CCCC(=O)N2CCN(C=O)CC2)cc1
10: CCCCCn1c(=O)[nH]c2cc(C(=O)NCc3ccccn3)ccc2c1=O
11: Cc1cc(Cl)c(S(=O)(=O)NCc2ccncc2)cc1OCC(N)=O
12: CC(C)CNc1cc(Cl)c(S(=O)(=O)NCC(C)C)cc1C(=O)O
13: Cc1cc(C)n(Cc2nc3ccccc3n2C)n1
14: CC(C)CN(CC(C)C)S(=O)(=O)N1CCC(C(=O)NCCc2ccc(Cl)cc2)CC1
15: CCCCN1C(=S)NC[C@@H]1c1ccccc1
16: CCn1c2ccccc2c2cc(CN3CCN(Cc4ccccc4Cl)CC3)ccc21
screen / no. | 9 | 10 | 11 | 12 | 13 | 14 | 15 | 16
TRPML1 ag | -0.2 | -0.7 | -0.1 | -0.4 | -0.5 | -0.2 | 1.2 | 2.1
TRPML1 inh | -16 | -2 | 6 | -1 | 16 | -5 | -3 | -2
Menin MLL FP FL | 5.6 | 0.5 | 3.2 | ? | -1.8 | 14 | 0.2 | nt
TRPV1 potentiator | 1 | -9 | -1 | 7 | 13 | 0 | 0 | nt
ClpP mod | -0.9% | nt | 0.1% | -2.4% | 0.1% | 2.6% | -3.7% | ?
PINK1 modulator | 11%[38.3 µM] | 4.1% | -1.3% | 1.6% | -1.0% | -6.9%[38.3 µM] | 0.5% | 0.5%
Sfp inh | 11% | -5% | 0% | 16% | 0% | 26% | 1% | nt

17: Cc1ccc(C(=O)c2c3ccc(C(F)(F)F)cc3[n+]([O-])n2CCCC(N)=O)cc1
18: COc1c(C)cc(C(=O)C2CCCN(C(=O)c3cccc(-n4cccn4)c3)C2)cc1C (stereo not drawn)
19: CC1Cc2cc(/C(O)=C3/C(=O)C(=O)N(CCCn4ccnc4)C3c3cccnc3)ccc2O1 (stereo not drawn)
20: CSc1ccc(-c2nnn(CC(=O)NCc3ccccc3)n2)cc1
21: Cc1ccc(NC(=O)CSc2nc(NS(=O)(=O)c3ccc(C)cc3)cc(=O)[nH]2)cc1
22: Cn1c(SCc2ccc([N+](=O)[O-])cc2)nnc1-c1cccnc1
23: CCOCCCNC(=O)C1CCN(S(=O)(=O)N(CC(C)C)CC(C)C)CC1
24: CCOC(=O)COc1c(/C=N\OC)cc(Cl)cc1OC
screen / no. | 17 | 18 | 19 | 20 | 21 | 22 | 23 | 24
TRPML1 ag | -0.5 | 1.1 | -0.1 | -0.8 | 1.2 | -0.2 | 1.6 | 2.8
TRPML1 inh | -8 | -3 | 31 | -6 | -5 | -25 | 2 | 30
Menin MLL FP FL | nt | -0.8 | -2.9 | 4.1 | -3.2 | 1.9 | 0.6 | -0.4
TRPV1 potentiator | 7 | -7 | 4 | 3 | 10 | -7 | 0 | 4
ClpP mod | 1.1% | 0.0% | -2.6% | -3.6% | -0.2% | nt | -1.3% | nt
PINK1 modulator | 0.6% | 1.8% | 0.4%[38.3 µM] | 17% | 12%[38.3 µM] | -0.4% | 0.5%[38.3 µM] | 14%
Sfp inh | nt | -1% | -1% | -1% | -7% | 9% | 15% | 11%

The list goes on, overlapping the part above by 4 compounds.
21: Cc1ccc(NC(=O)CSc2nc(NS(=O)(=O)c3ccc(C)cc3)cc(=O)[nH]2)cc1
22: Cn1c(SCc2ccc([N+](=O)[O-])cc2)nnc1-c1cccnc1
23: CCOCCCNC(=O)C1CCN(S(=O)(=O)N(CC(C)C)CC(C)C)CC1
24: CCOC(=O)COc1c(/C=N\OC)cc(Cl)cc1OC
25: CS(=O)(=O)N1CCC(C(=O)NCc2ccc(Cl)cc2Cl)CC1
26: Cc1ccc(C)c(N(Cc2ccccc2F)S(C)(=O)=O)c1
27: Cc1ccc(-n2nc(C)c3c2OC(N)=C(C#N)C3c2ccoc2)cc1 (stereo not drawn)
28: CCCCNC(=O)CN1C(=O)CSc2ccc(S(=O)(=O)N3CCOCC3)cc21
29: Cc1cc(C)n(-c2ccc(Cl)c(C(=O)Nc3ccc(OC(F)(F)F)cc3)n2)n1
30: CC(C)[C@H](NS(=O)(=O)c1ccccc1)C(=O)OCC(=O)Nc1cccc(S(N)(=O)=O)c1
31: Cc1onc(-c2c(Cl)cccc2Cl)c1C(=O)N1CCN(c2ncccn2)CC1
32: CCC(=O)NC(=S)Nc1cccc(NC(=O)c2ccc(Cl)cc2Cl)c1
screen / no. | 21 | 22 | 23 | 24 | 25 | 26 | 27 | 28 | 29 | 30 | 31 | 32
TRPML1 ag | 1.2 | -0.2 | 1.6 | 2.8 | 2.1 | -1.1 | 0.0 | -0.3 | 0.5 | 1.9 | 4.8 | 1.7
TRPML1 inh | -5 | -25 | 2 | 30 | 35 | 5 | 1 | 3 | -21 | -10 | -2 | -16
Menin MLL FP FL | -3.2 | 1.9 | 0.6 | -0.4 | 2.3 | -1.9 | 7.0 | nt | 10 | nt | 4.8 | 2.0
TRPV1 potentiator | 10 | -7 | 0 | 4 | -5 | -4 | -18 | nt | 4 | nt | 0 | 8
ClpP mod | -0.2% | nt | -1.3% | nt | nt | -0.1% | -2.4% | -0.3% | -1.8% | -2.0% | -14% | -3.4%
PINK1 modulator | 12%[38.3 µM] | -0.4% | 0.5%[38.3 µM] | 14% | 1.6% | -1.5% | 1.2% | -0.7% | 8.5% | -0.3% | -0.9% | 0.3%
Sfp inh | -7% | 9% | 15% | 11% | -6% | -19% | ? | nt | -9% | nt | 4% | 26%

33: COC(=O)C(c1ccccc1)C(C(=O)OC)c1ccccc1 (stereo not drawn)
34: CCC(=O)c1ccc(N2CCN(C(=O)c3ccccc3)CC2)c(F)c1
35: COc1ccc(N2CC(C)(C)[C@H](CC(=O)Nc3ccc(Br)cc3)C2=O)cc1
36: O=C(C1CCCO1)N(Cc1ccccc1)c1ccccc1 (stereo not drawn)
37: O=C(c1oc2ccccc2c1N1CCCCC1)N1CCCCC1
38: N#Cc1cccc(NC(=O)COC(=O)Cn2nc(-c3ccccc3)oc2=O)c1
39: CN(C)S(=O)(=O)c1ccc(S(=O)(=O)N2CCCC(C(=O)NC3CC3)C2)cc1 (stereo not drawn)
40: CCN(Cc1nc2ccccc2c(=O)[nH]1)C(=O)c1cc(C2CC2)nn1-c1ccccc1
screen / no. | 33 | 34 | 35 | 36 | 37 | 38 | 39 | 40
TRPML1 ag | 0.2 | -1.3 | 0.3 | 0.0 | 1.3 | -0.5 | -0.3 | 1.0
TRPML1 inh | -6 | -5 | 3 | -15 | -5 | -9 | 11 | 3
Menin MLL FP FL | 2.8 | -0.2 | nt | -0.3 | 1.6 | nt | -0.2 | nt
TRPV1 potentiator | -2 | -1 | nt | 2 | -15 | -9 | 16 | -2
ClpP mod | -2.6% | -4.3% | 0.7% | 0.8% | -1.4% | -3.3% | nt | 0.9%
PINK1 modulator | 3.3% | -0.3% | 1.8% | 2.4%[38.3 µM] | -1.5%[38.3 µM] | 0.5% | 0.4% | 3.7%
Sfp inh | 7% | 19% | nt | 9% | 14% | nt | 7% | nt

41: CCOc1ccccc1NC(=O)Nc1cc2c(cc1N1CCCCC1)n(CC)c(=O)n2CC
42: CCN(c1ccccc1C)S(=O)(=O)c1nnc(NC(=O)c2ccccc2C)s1
43: O=C(c1ccccc1)N1CCN(Cc2ccccc2)CC1
44: COc1ccc(-c2cn3c(n2)sc2cc(C(=O)Nc4ccc(F)cc4Cl)ccc23)cc1
45: Nc1nnc(SCc2ccc(F)cc2)n1-c1ccccc1
46: Cc1ccc(-n2c(C)c(C)c3c(N)ncnc32)cc1
47: Cc1ccc(OCC(=O)Nc2ccc(C(=O)OCc3cc(=O)n4ccsc4n3)cc2)cc1C
48: Cc1cc2nc(C)n(CCCN)c2cc1C
49: Cc1sc(NCc2ccccc2)nc1-c1ccccc1
screen / no. | 41 | 42 | 43 | 44 | 45 | 46 | 47 | 48 | 49
TRPML1 ag | 1.5 | 2.9 | 0.5 | -0.5 | -0.1 | 1.0 | -0.4 | 0.0 | -0.4
TRPML1 inh | 3 | -30 | 14 | 9 | 0 | -14 | 0 | -5 | nt
Menin MLL FP FL | nt | nt | -8.0 | nt | 1.4 | -4.2 | nt | -1.9 | nt
TRPV1 potentiator | nt | nt | 6 | nt | 1 | 3 | nt | -15 | nt
ClpP mod | ? | -5.4% | -8.8% | -18% | 1.3% | nt | ? | -0.3% | -3.3%
PINK1 modulator | 0.0% | 0.4% | nt | -0.3% | -1.9%[38.3 µM] | -1.2% | 0.6% | nt | 0.2%
Sfp inh | nt | nt | -17% | nt | 11% | 12% | nt | 23% | nt

Source: PubChem (National Center for Advancing Translational Sciences (NCATS))
